# NS1 inh: inhibitors of influenza NS1 protein function; S. cerevisiae slowed by influenza A NS1, growth recovery by OD600; Potency, µM (series often up to 46.1 µM), for the others: top-dose activity, positive = more growth; actives 0.4% (n = 270,000); AID 2326; note: actives are rising curves; nearly all actives have a fitted effect of over 50% in size
#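 Growth recovery, yeast-based: influenza A NS1 expressed in S. cerevisiae causes slow growth, and suppressors are detected by OD600. The parent strain without NS1 is used as positive control.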
# LASV entry inh: Lassa virus entry inhibition. Lassa virus pseudotype entry inhibition, cell reporter; control for the full effect not named in the record. Potency, µM (highest dose often 37.9 µM), for the others: at the highest dose activity change, negative = inhibition, hits mostly inhibitors. actives 1.2% (n = 300,000). AID 540256; active means well fitted inhibition curve with a large enough effect; inconclusive means small, poorly fitted or top-dose-only effect, or effect the other way; inactive means flat fitted curve, though single readings scatter; tested in HEK293 cells; note: % is set by controls: 0 for no effect and ±100 for the full control effect; nearly all actives have a fitted effect of over 50% in size; luciferase read-out
# Cruzain inh noDet: blocks cruzain activity in detergent-free assay. purified cruzain, Z-FR-AMC fluorescence, no detergent. Potency, µM, for inactives: max response, negative = inhibition, actives largely listed as inhibitors. actives 2.3% (n = 200,000). AID 1476; active = well fitted curve in the direction sought with a large enough effect; inconclusive = small, poorly fitted or top-dose-only effect, or another doubt; inactive = no such curve, though single readings can be large; an effect the other way counts as inactive or inconclusive;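 note: plate controls were enzyme without inhibitor for no effect and buffer without enzyme for full effect; nearly all actives have a fitted effect of over 40% in size; top concentration of the series not given in the record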
# Target sequence (P25779 123-467 limits assumed): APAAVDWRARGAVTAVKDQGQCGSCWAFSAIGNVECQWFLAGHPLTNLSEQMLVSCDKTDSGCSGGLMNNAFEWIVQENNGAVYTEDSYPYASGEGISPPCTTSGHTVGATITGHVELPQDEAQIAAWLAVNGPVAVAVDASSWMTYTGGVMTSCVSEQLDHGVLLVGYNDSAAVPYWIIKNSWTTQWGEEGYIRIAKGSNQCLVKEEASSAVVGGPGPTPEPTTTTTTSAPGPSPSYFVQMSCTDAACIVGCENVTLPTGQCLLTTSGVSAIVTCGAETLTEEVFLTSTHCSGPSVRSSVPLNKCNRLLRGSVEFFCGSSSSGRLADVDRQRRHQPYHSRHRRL
#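 Detergent-free condition (0.00005% Triton X-100) in acetate buffer pH 5.5 with DTT. 1.5 nM enzyme and compound were pre-mixed 15 min, then 2 uM Z-FR-AMC substrate added; reaction progress from fluorescence change between first and third reads (60 s).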
# SARS PLpro yeast: blocks SARS-CoV papain-like protease in a yeast assay. S. cerevisiae expressing SARS-CoV PLpro, growth rescue; control for the full effect not named in the record. Potency, µM (series often up to 32.9 µM), inactives show at the highest dose activity, positive = growth rescue. actives 0.19% (n = 330,000). AID 485353; note: 0% is about no effect; nearly all actives have a fitted effect of over 55% in size; growth read by luminescence after 48 h
# RE007 growth inh: less growth of the S. pombe RE007 Vpr strain; actives 0.21% (n = 360,000); AID 651644; Potency, µM (series often up to 92.2 µM), inactives show at the top dose activity change, negative = less growth; S. pombe RE007 Vpr strain, BacTiter-Glo ATP luminescence, 24 h; control for the full effect not named in the record; active = well fitted falling curve with a large enough effect; inconclusive = small, poorly fitted or top-dose-only effect; inactive = no such curve, though single readings can be large or run the other way;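 note: % is set by controls: 0 for no effect and ±100 for the full control effect; nearly all actives have a fitted effect of over 50% in size; the assay follows cell death caused by Vpr and the record does not say whether a fall means rescue or toxicity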
#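 Fission yeast RE007 carrying one integrated HIV-1 vpr copy, seeded at OD 0.01 in PMG+AL medium with 23 nL pinned compound. Grown 24 h at 30 degrees; viability read by BacTiter-Glo luminescence after 5 min.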
# Cruzain inh Det: inhibitors of Trypanosoma cruzi cruzain with detergent | P25779 | purified cruzain, Z-FR-AMC fluorescence, 0.01% Triton | Potency, µM, without a hit: max response, negative = inhibition, usual class: inhibitors | actives 0.43% (n = 200,000); active = well fitted curve in the direction sought with a large enough effect; inconclusive = small, poorly fitted or top-dose-only effect, or another doubt; inactive = no such curve, though single readings can be large; an effect the other way counts as inactive or inconclusive;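 note: plate controls were neutral wells for no effect and buffer without enzyme for full effect; nearly all actives have a fitted effect of over 40% in size; top concentration of the series not given in the record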
#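 Cysteine protease activity tested under reducing, mildly acidic conditions (100 mM sodium acetate pH 5.5, 5 mM DTT) plus 0.01% Triton X-100. Cruzain 1.5 nM; substrate Z-FR-AMC 2 uM; 15 min compound preincubation at room temperature.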
# Marburg entry inh: inhibitors of Marburg virus binding or cell entry | Marburg virus pseudotyped entry inhibition, cell reporter; control for the full effect not named in the record; about a third of the inactives were read at about 46 µM | Potency, µM (doses to about 37.8 µM), inactives show top-dose activity change, negative = inhibition, usual class: inhibitors | actives 1.8% (n = 300,000); active = well fitted inhibition curve with a large enough effect; inconclusive = small, poorly fitted or top-dose-only effect, or effect the other way; inactive = flat fitted curve, though single readings scatter; tested in HEK293 cells; about a fifth of its hits are not listed in these tables; note: % is set by controls: 0 for no effect and ±100 for the full control effect; luciferase read-out
# StopGo reporter: lowers the luciferase signal of an FMDV 2A StopGo reporter; Potency, µM (doses to about 57.9 µM), without a hit: at the top dose signal change, negative = less light; actives 1.2% (n = 410,000); AID 1159524; human cells with a luciferase reporter of 2A StopGo recoding; control for the full effect not named in the record; active = well fitted falling curve with a large enough effect; inconclusive = small, poorly fitted or top-dose-only effect; inactive = no such curve, though single readings can be large or run the other way; tested in HEK293T cells; note: % is set by controls: 0 for no effect and ±100 for the full control effect; nearly all actives have a fitted effect of over 45% in size; luciferase light after 4 h
# An asterisk follows results filed as active; ? = inconclusive; . = not tested or not shown; & = joins results of further samples; [ ] = another dose, or the depositor's remark. Unless noted, calls come from the whole dose curve; as a rule, active means well fitted rising curve with a large enough effect; inconclusive means small, poorly fitted or top-dose-only effect; inactive means no such curve, though single readings can be large or run the other way. Potency is the fitted concentration of half-maximal effect.
SMILES,NS1 inh,LASV entry inh,Cruzain inh noDet,SARS PLpro yeast,RE007 growth inh,Cruzain inh Det,Marburg entry inh,StopGo reporter
Cc1nc(NC(=O)COC(=O)c2ccc(CO)cc2)c(Cl)cc1Cl,.,8%,.,-1%,5%,.,-7%,-6%
CC(C)(C)C1CCC(=O)C(C2(O)C(=O)Nc3ccccc32)C1 (stereo not given),0%,13%,-8%,-1%,16%,0.0%,0%,.
CCNC(=S)N1CCN(c2ccccc2OCC)CC1,-10%,0%,2%,-10%,-4%,-3.0%,-25%,-17%
Cc1cccc(NC(=S)NC2CC3CCCC(C2)N3Cc2ccco2)c1 (stereo not given),6%,.,.,-1%,-3%,.,.,-22%
COc1ccc(/C=C2\SC(=S)N(NS(=O)(=O)c3ccc(C)cc3)C2=O)c(OC)c1,12%,3%,.,13%,6%,.,0%[46.1 µM],6%
COc1ccc(N(CC(=O)Nc2nccs2)S(=O)(=O)c2c(C)[nH]c(=O)[nH]c2=O)cc1,0%,-6%,.,1%,3%,.,-8%,5%
C/C=C\C(=O)Nc1cccc(C2=NOC3(C2)C[C@@H](C(N)=O)N(C(=O)c2ccc(OC)cc2)C3)c1 (stereo not given in full),-13%,.,.,2%,0%,.,.,2%
COc1ccc(C2CC(=O)N(C)c3ccccc3S2)cc1 (stereo not given),.,-2%,.,-6%,23%,.,2%[46.1 µM],10%
Cc1ccc(NC(=O)Cn2c(CCC(=O)O)ccc2-c2ccc(Cl)cc2)cc1,6%,-1%[46.1 µM],20%,0%,9%,-13%,26%&26%[46.1 µM],-9%&-12%
COc1cc(/C=C2/SC(=S)N(CC(=O)O)C2=O)ccc1OC(=O)c1cccs1,18%,.,.,-2%,1%,.,.,1%
Cc1ccc(-c2nnn(CC(=O)N(c3ccccc3)C(C(=O)NCC3CCCO3)c3cccs3)n2)o1 (stereo not given),.,1%,.,0%,-17%,.,-17%[46.1 µM],-11%
CN1CCSc2ccc(C(=O)Nc3ccc(Cl)cc3)cc21,-2%,-25%[46.1 µM],.,-2%,6%,.,?,73%[activator]
CC(=NNC(=S)N1CC2CCC(CC2)C1)c1nccs1,.,?,.,.,32µM*,.,?,-11%
Cc1ccc(NC(=O)Cn2cccc2)cc1C,-5%,1%,9%,-9%,-10%,2.2%,-24%,-9%
Oc1ccc(Nc2ncnc3ccccc23)cc1,4%,.,.,0%,2%,.,.,23%
CCc1cc(=O)oc2c3c(cc(OCC(=O)NCCCOC)c12)OC(C)(C)CC3,3%,5%[46.1 µM],.,-1%,-5%,.,-1%[46.1 µM],3%
Cc1ccc(NC(=O)c2ccc3c(SCC(=O)O)c4c(nc3c2)CCCC4)c(Br)c1,13%,.,.,23%,-7%,.,.,-9%
CN1/C(=C\C(=S)NC(=O)c2ccc([N+](=O)[O-])cc2)C(C)(C)c2ccccc21,?,.,?,20%,7%,-11%,.,5%
CC(=O)N1c2ccc(S(=O)(=O)NCCc3ccc(Cl)cc3)cc2CC1C (stereo not given),-12%,.,.,1%,18%,.,.,63%[activator]
CCN(Cc1ccccc1)S(=O)(=O)c1ccc(S(=O)(=O)N(Cc2ccccn2)Cc2ccco2)cc1,-10%,-6%,1%,1%,-3%,-2.2%,-5%,29%

# The last 5 records of the part above lead into the next.
SMILES,NS1 inh,LASV entry inh,Cruzain inh noDet,SARS PLpro yeast,RE007 growth inh,Cruzain inh Det,Marburg entry inh,StopGo reporter
CCc1cc(=O)oc2c3c(cc(OCC(=O)NCCCOC)c12)OC(C)(C)CC3,3%,5%[46.1 µM],.,-1%,-5%,.,-1%[46.1 µM],3%
Cc1ccc(NC(=O)c2ccc3c(SCC(=O)O)c4c(nc3c2)CCCC4)c(Br)c1,13%,.,.,23%,-7%,.,.,-9%
CN1/C(=C\C(=S)NC(=O)c2ccc([N+](=O)[O-])cc2)C(C)(C)c2ccccc21,?,.,?,20%,7%,-11%,.,5%
CC(=O)N1c2ccc(S(=O)(=O)NCCc3ccc(Cl)cc3)cc2CC1C (stereo not given),-12%,.,.,1%,18%,.,.,63%[activator]
CCN(Cc1ccccc1)S(=O)(=O)c1ccc(S(=O)(=O)N(Cc2ccccn2)Cc2ccco2)cc1,-10%,-6%,1%,1%,-3%,-2.2%,-5%,29%
Cc1[nH][nH]c(=O)c1C(c1ccc(-c2ccc(Cl)cc2)o1)c1c(C)[nH][nH]c1=O,-7%,-19%,2%,-10%,-15%,-10%,?,-18%
CCOC(=O)Cn1nc(NC(=O)c2cc(OC)cc(OC)c2)cc1C,23%,.,.,4%,0%,.,.,2%
CC(=O)c1sc(N/N=C/c2cccc([N+](=O)[O-])c2)nc1C,?,17%[46.1 µM],.,6%,-6%,.,?,14%
CN(C)c1ccc(CN(CC2CCCO2)C(=O)c2ccc(Br)cc2)cc1 (stereo not given),.,?,3%,.,.,-2.6%,-28%[46.1 µM],23%
CCn1nc(C)c2c(-c3ccccc3)cc(=O)n(C(C)C(=O)NCc3cccc(OC)c3)c21 (stereo not given),.,-21%[46.1 µM],?,.,.,-9.2%,.,-19%
COc1ccc(NS(=O)(=O)c2cc(-c3nnnn3C)ccc2OC)cc1,7%,-5%,2%,0%,14%,6.7%,10%,34%[activator]
O=C(c1ccncc1)N(Cc1ccco1)Cc1cc2ccccc2[nH]c1=O,9%,2%,6%,-4%,-4%,1.5%,11%,-13%
COc1ccc(-n2c(C)cc(C(=O)CN3C(=O)c4ccccc4C3=O)c2C)cc1,-5%,27%,5%,13%,22%,-1.9%,?,32%[activator]
CCN1C(=O)C(O)(CC(=O)c2cc(C)ccc2C)c2ccccc21 (stereo not given),-62%,21%,6%,3%,9%,-6.2%,6%,-9%
COc1ccc(C(=O)NCC(=O)N2CCN(c3ccc(F)cc3)CC2)cc1,19%,6%[46.1 µM],.,1%,-4%,.,-2%[46.1 µM],1%
O=C(NCCc1ccccc1)C1CCN(c2nc3ccccc3o2)CC1,-12%,18%,-7%,7%,-11%,-1.8%,1%,-24%
Cc1cc(-c2nc(-c3ccc(C(C)(C)C)cc3)no2)no1,0%,.,.,-1%,8%,.,.,14%
CCC(Sc1nc(C)cc(=O)[nH]1)C(=O)Nc1ccc(Cl)cn1 (stereo not given),-7%,.,-2%,-2%,0%,-5.2%,.,-10%
O=S(=O)(c1ccc(Cl)c(C(F)(F)F)c1)N1CCN(c2ccccn2)CC1,.,-19%,.,2%,-9%,.,?,-25%
O=C(CN1C(=O)C2C3C=CC(C3)C2C1=O)OCC(=O)c1ccc([N+](=O)[O-])cc1 (stereo not given),2%,0%,.,5%,-9%,.,2%[46.1 µM],-12%
Cc1nc(CCNC(=O)c2cc(COc3ccc(F)cc3Cl)on2)sc1C,-7%,.,.,0%,-17%,.,.,-18%
COc1ccc(CCN2CN(S(=O)(=O)c3ccc(C)cc3)c3nc4ccccc4nc32)cc1OC,14%,17%,?,-6%,7%,-6.2%,?,-17%
CCNC(=O)C1CCN(c2nc3ccccc3nc2C(F)(F)F)CC1,.,30%[46.1 µM],12%,.,.,2.0%,.,-13%
C(=N\Nc1nc2ccccc2[nH]1)/c1ccc2ncccc2c1,-2%,?,.,-1%,0%,.,?,30%[activator]
O=C(Nc1ccc2c(c1)OCO2)c1ccc(CN2CCOCC2)cc1,11%,-17%,6%,-3%,0%,3.5%,-16%[46.1 µM],-8%
O=C(Nc1ccc2c(c1)OCO2)c1cc(-c2ccncc2)nc2ccccc12,.,?,.,-6%,-8%,.,?,5%
CCOC(=O)C(CC(=O)O)=C(c1ccccc1)c1ccccc1,-2%,13%,.,1%,6%,.,11%,-12%
COc1ccc(OC)c(N(CC(=O)N2CCOCC2)S(C)(=O)=O)c1,9%,-1%,.,-7%,-5%,.,?,0%
CC(C)(C)n1ncc2c(=O)n(CC(=O)NCc3ccccc3)cnc21,-6%,?,0%,-8%,-10%,1.7%,?,?
C=CCn1c2ccccc2c2nnc(SCCCn3c(=O)[nH]c4ccccc43)nc21,13%,?,3%,-20%,16%,-7.7%,?,?
COC(=O)c1c(-c2cccs2)csc1NC(=O)c1ccc(OC)c(OC)c1,.,-2%[46.1 µM],-7%,.,.,-8.7%,1%[46.1 µM],-6%
CCOC(=O)c1ccc(NC(=O)CSc2nccn2-c2cc(C)cc(C)c2)cc1,.,27%[46.1 µM],5%,.,.,-2.0%,.,?
COc1ccc(OC)c(CNC(=O)c2ccc(Sc3ccc(Cl)cc3)c(NC(C)=O)c2)c1,.,?,10%,.,.,0.3%,.,0%
CS(=O)(=O)N1N=C(c2cccs2)CC1c1ccccc1O (stereo not given),2%,-6%,.,0%,13%,.,-1%[46.1 µM],0%
C[C@@]12C(=O)N(c3cccc(F)c3)C(=O)N1[C@H](c1ccc(F)cc1)[C@@H]1C(=O)N(C3CCCCC3)C(=O)[C@@H]12,-8%,.,.,4%,-15%,.,.,-27%
COc1cc(C2c3cc4c(cc3OC(NCCc3ccccc3)C2C)OCO4)cc(OC)c1OC (stereo not given),.,?,.,.,-8%,.,?,-13%
O=C(CN1CCOCCOCCN(CC(=O)Nc2ccccc2)CCOCC1)Nc1ccccc1,-7%,5%,22%,0%,-7%,4.0%,13%&13%[46.1 µM],15%
COc1ccc(CNC(=O)c2cc(=O)[nH]c3ccc(S(=O)(=O)N4CCCC4)cc23)c(OC)c1,.,6%[46.1 µM],8%,.,.,0.1%,.,-9%
O=C(Nc1cccc2ccccc12)N1CC=CCC1,2%,-3%,-2%,9%,-15%,-2.1%,16%,-3%
O=C(c1ccc(S(=O)(=O)NCc2ccco2)cc1)N1CCN(Cc2ccc3c(c2)OCO3)CC1,-2%,?,.,4%,1%,.,-16%,-16%
CCOC(=O)c1c(NC(=O)COC(=O)C2CC2C)sc(C)c1C (stereo not given),.,-14%,.,-6%,-14%,.,-21%[46.1 µM],-15%
